Screening results as filed in PubChem BioAssay.
D2 PAM = positive allosteric modulators of human D2 dopamine receptor; P14416; DiscoveRx D2 beta-arrestin cells, luminescence, 90 min; 100% = 57 uM dopamine signal; potentiation, % (concentration not given with the values); actives 0.23% (n = 360,000); AID 624464; active = potentiation of 50% or more; inconclusive = 30% to 50%; inactive = 30% or less;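 further: compound concentration not given in the record; tested on top of an EC20 dose of dopamine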
Target sequence (P14416 whole entry, looked up): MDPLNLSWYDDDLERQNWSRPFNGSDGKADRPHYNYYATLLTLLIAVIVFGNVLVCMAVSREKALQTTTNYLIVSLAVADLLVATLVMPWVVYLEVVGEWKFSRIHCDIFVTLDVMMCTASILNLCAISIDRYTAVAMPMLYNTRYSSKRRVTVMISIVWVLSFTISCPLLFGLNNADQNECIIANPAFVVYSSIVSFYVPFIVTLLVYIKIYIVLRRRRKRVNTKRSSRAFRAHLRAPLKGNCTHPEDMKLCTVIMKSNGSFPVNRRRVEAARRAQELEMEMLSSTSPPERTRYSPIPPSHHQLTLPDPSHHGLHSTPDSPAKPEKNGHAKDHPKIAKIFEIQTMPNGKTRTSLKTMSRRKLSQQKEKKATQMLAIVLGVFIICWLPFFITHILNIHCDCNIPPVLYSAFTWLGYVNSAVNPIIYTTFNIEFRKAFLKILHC
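D2 cells co-treated with compound plus 50 nM dopamine (EC20) for 90 min at 37 deg C to detect potentiation. Beta-arrestin recruitment was read as enzyme-fragment luminescence after 1 h at ambient temperature. Full response was set by 57 uM dopamine.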
Sfp PPTase inh = inhibitors of Bacillus subtilis Sfp phosphopantetheinyl transferase; Q9F4F7; Biochemical Sfp PPTase activity, qHTS; Potency, µM, for inactives: max response, negative = inhibition, actives largely listed as inhibitors; actives 3.5% (n = 310,000); active means well fitted inhibition curve with a large enough effect; inconclusive means small, poorly fitted or top-dose-only effect, or another doubt; inactive means no such curve, though single readings can be large or run the other way;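 further: the enzyme is Sfp with the accession as filed and its product quenches rhodamine fluorescence; potency means the concentration at half of the fitted maximal effect; 0% = enzyme reaction without inhibitor and -100% = no enzyme wells; top concentration of the series not given in the record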
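Compounds were incubated with enzyme (final 15 nM) for 15 min at room temperature before substrate addition started the reaction. Fluorescence at 525 nm excitation, 598 nm emission was recorded immediately and after 30 minutes.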
TRPV1 potentiator = enhances activation of the human vanilloid receptor TRPV1; Q8NER1; TRPV1-expressing cells, Fluo-8 calcium influx, capsaicin EC20 potentiation; host cell line not named in the record; control for the full effect not named in the record; potentiation, % at 8.33 µM; actives 0.02% (n = 320,000); AID 540277; active means potentiation above 80%; inconclusive means 30% to 80%; inactive means below 30%; further: 0% is about no effect
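Cells expressing TRPV1 were dye-loaded with Fluo-8 and read kinetically: 10 s baseline, 3 min after compound (agonist portion), then 2 min after EC20 capsaicin (allosteric enhancer portion). Calcium-bound dye fluorescence at 480/520 nm.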
D2 ag = activates the human D2 dopamine receptor. P14416. actives 0.084% (n = 360,000). DiscoveRx PathHunter D2 beta-arrestin, luminescence, 90 min; 100% = 57 uM dopamine signal. activation, % (no concentration beside the values); in the data active = activation above about 40%; inconclusive = about 15% to 40%; inactive = below about 15%; further: compound concentration not given in the record; the text of the record calls up to 30% inactive
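Agonist mode: compounds alone added to overnight-plated D2 PathHunter cells for 90 min at 37 C, with 57 uM final dopamine (EC100) defining full response. Beta-arrestin recruitment detected by chemiluminescent reagent, read after 1 h at ambient temperature.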
PINK1 modulator = changes PINK1 expression; PINK1 immunofluorescence, high-content cytometry, 24 h; Potency, µM (highest dose often 76.6 µM), without a hit: at the highest dose activation (PINK1 increase), most hits filed as activators; actives 0.2% (n = 410,000); active = well fitted activation curve with a large enough effect; inconclusive = small, poorly fitted or top-dose-only effect; inactive = flat fitted curve, though single readings scatter; cell line not stated here;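 further: potency means the concentration at half of the fitted maximal effect; % of control where 0% means no effect; nearly all actives have a fitted effect of over 65% in size; a mitochondrial uncoupler was the plate control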
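Fluorescence from anti-PINK1 antibody, together with nuclear and cell stains, was scanned on a laser-scanning cytometer. Before staining, stable-line cells were incubated 24 hours with compounds at 5 concentrations; primary antibody 12 h at 10 degrees C.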
Six1-Eya2 inh = inhibitors of human Six1/Eya2 interaction. activity change, % (no concentration beside the values). actives 0.56% (n = 360,000). AlphaScreen GST-Six1/His-Eya2 binding, biochemical; stronger effect = lower value; control for the full effect not named in the record. Q15475+O00167; in the data active = activity change below about -65%; inconclusive = about -30% to -65%; inactive = above about -30%; further: on the % scale 0 is the no-effect control and ±100 the full control effect; compound concentration not given in the record
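AlphaScreen luminescence read after one hour at 37 °C in darkness. Pin-transferred compounds met GST-Six1 and His-Eya2 protein (5X stock 250 nM/500 nM) plus glutathione donor and Ni-chelate acceptor beads (5X, 50 ug/mL).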
CtBP-E1A blk = inhibitors of CtBP/E1A interaction. AlphaScreen GST-E1A/His-CtBP binding, 1536-well; stronger effect = lower value; control for the full effect not named in the record. activity change, % (concentration not given with the values). actives 0.49% (n = 340,000). AID 651724; in the data active means activity change below about -65%; inconclusive means about -30% to -65%; inactive means above about -30%; further: on the % scale 0 is the no-effect control and ±100 the full control effect
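Homogeneous bead-based format: GST-tagged E1A captured on glutathione donor beads, His-tagged CtBP on nickel acceptor beads; compounds precede bead addition by 2 h at 37 °C.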
* marks the source's active call; other numbers are inactive results; ? = inconclusive; · = no result given; [ ] = dose if it differs, or a comment.

SMILES	D2 PAM	Sfp PPTase inh	TRPV1 potentiator	D2 ag	PINK1 modulator	Six1-Eya2 inh	CtBP-E1A blk
Cc1ccccc1C(=O)NC1CCN(CC(=O)NCc2ccc(F)cc2)CC1	-10.7	7.4%	-4.7	3.0	-1.5%	3.0	-10.7
COC(=O)c1ccccc1C(=O)N1CCCC(CCC(=O)NCc2ccc(F)c(F)c2)C1 (stereo not given)	-6.8	-11.2%	-3.9	-1.6	-0.5%	5.7	12.4
CC(=O)N1CCc2cc(S(=O)(=O)NCCC(=O)NCCc3ccccc3)ccc21	-9.9	-4.7%	24.3	2.3	0.6%	5.4	5.5
O=C(Nc1ccc(Cl)c(C(F)(F)F)c1)[C@@H]1CC=C[C@@H]2CCN(Cc3ccccc3)C(=O)[C@@H]21	-5.1	·	·	-1.7	2.6%	-1.4	·
CCN(CC)C1CCN(C(=O)CCc2nnc(CCCCc3ccccc3)o2)C1 (stereo not given)	-6.4	-1.2%	-1.0	1.5	-0.6%	0.5	1.7
CCC(NS(=O)(=O)c1ccc(C)cc1)C(=O)N1CCN(c2ccccn2)CC1 (stereo not given)	-4.5	10.8%	·	-2.4	-2.1%	0.7	5.7
CCN(CC(=O)Nc1ccc2c(c1)OCCO2)Cc1cc(=O)n2ccsc2n1	-3.9	-16.2%	27.6	-5.2	1.6%	-1.8	0.4
Cc1ccnc(NC(=O)c2ccc(Cl)c([N+](=O)[O-])c2)c1	-3.1	15.9%	-15.3	0.2	2.9%	-3.0	-8.5
CCc1cccc(C)c1Nc1nc2ccccc2n2cnnc12	0.6	12.3%	-2.2	6.6	-0.2%	7.2	6.3
CSC1=C(C#N)C(c2ccc(C)cc2)C2=C(CCCC2=O)N1 (stereo not given)	3.4	-13.7%	-31.7	-1.9	-1.8%	3.3	1.6
Cc1ccc(/C=N/NC(=O)CSc2nc3ccccc3c(=O)n2-c2ccccc2C)s1	4.8	4.3%	5.5	?	3.1%	-8.8	4.0
CNC(=O)c1ccsc1NC(=O)c1ccc(Cl)s1	-4.6	-5.6%	-9.1	-5.6	0.6%	-5.4	1.1
CC(C)[C@H](NC(=O)[C@H](Cc1ccccc1)n1c(=O)[nH]c2ccccc2c1=O)C(=O)N[C@@H](Cc1ccccc1)C(=O)O	-31.1	16.4%	-5.6	-7.7	1.0%	-0.6	0.9
COc1ccc(NC(=O)CSc2nnnn2C)cc1	-4.1	14.6%	1.1	-6.1	3.6%	-4.6	-4.1
Cc1cccc(NC(=O)c2cc(NC(=O)C3CCCCC3C(=O)O)ccc2N2CCCCC2)c1 (stereo not given)	-13.7	15.6%	0.1	0.0	-8.2%[38.3 µM]	-3.2	-4.6
Cc1cc(O)c(/C=N/Nc2ccc(Cl)cc2)c(=O)o1	-42.5	79.4µM*	7.4	-7.8	-2.1%	-9.8	-9.6
COc1ccc(CN2C(=O)CCC2(C)c2nnnn2Cc2ccccc2)cc1OC (stereo not given)	·	·	·	·	0.4%	5.4	1.7
COc1ccccc1-c1cnc(C(O)c2cccc(C)c2C)[nH]1 (stereo not given)	-7.8	·	·	1.4	2.9%	-3.9	-5.5
O=C(c1ccc2nccnc2c1)N1CCCC(N2CCN(c3ccc(F)cc3)CC2)C1 (stereo not given)	-0.1	-6.7%	-15.5	0.3	-0.9%	-2.8	1.7
CCCOC(=O)c1ccc(NC(=O)c2cc(=O)[nH]c3ccccc23)cc1	-0.4	0.1%	24.0	-0.4	1.0%	-0.4	4.6
Cc1[nH]c2ccccc2c1C(c1ccccn1)c1c(C)[nH]c2ccccc12	-3.6	39.8µM*	?	-2.3	4.4%	-19.6	-6.9
O=C(c1ccc(CS(=O)Cc2ccccc2Cl)o1)N1CCN(c2ccccn2)CC1 (stereo not given)	2.5	16.6%	22.0	-12.9	-0.4%	-1.5	-5.9
CCO[C@H]1OC(C(N)=O)=C[C@@H](C)[C@@H]1CCCO	-16.6	17.0%	12.7	-1.2	1.0%	6.7	5.7
CCCc1nc2ccc(C(=O)OC)cn2c1Cc1cccc(F)c1	-8.2	·	·	-6.4	2.4%	8.2	-10.1
COc1ccc(COC(=O)c2ccc(C)c(S(=O)(=O)N3CCOCC3)c2)cc1F	5.3	·	7.1	0.4	2.9%	5.7	-6.5
CC12CCC(C(=Nc3ccc(N=C4C(=O)C5(C)CCC4C5(C)C)cc3)C1=O)C2(C)C	-6.2	?	-22.4	-3.8	-0.1%	8.1	·
OCCN(Cc1ccccc1)Cc1nc(CC2CC2)no1	-4.9	2.4%	-2.2	-4.0	-0.6%	-2.0	5.0
O=C(CCc1nnc(Cc2cccc(C(F)(F)F)c2)o1)NCC(F)(F)F	-5.6	16.1%	1.7	-5.6	0.2%	21.3	2.2
Cc1nc(SCC(=O)c2cccs2)c2oc3ccccc3c2n1	-13.0	79.4µM*	-6.6	-4.7	0.3%	-12.0	-6.2
COc1ccc(CC(=O)Nc2ccc(F)c(S(=O)(=O)N3CCOCC3)c2)cc1	-7.7	·	·	-1.9	-0.6%	-6.9	-1.4
CCOC(=O)C1CCCN(C(=O)CS(=O)(=O)Cc2ccccc2)C1 (stereo not given)	-7.4	4.8%	-3.6	-2.0	0.8%	6.8	6.1
O=C(CSc1nnc(-c2cccnc2)n1Cc1ccco1)c1ccccc1	-3.1	-22.6%	-6.2	1.3	-1.6%	12.1	-4.5
Cc1c(C)c2ccc(OCC(=O)N[C@@H](Cc3c[nH]c4ccccc34)C(=O)O)cc2oc1=O	4.7	21.4%	-8.0	-2.9	0.5%	-3.5	2.0
CCn1c(SCc2nc3ccccc3[nH]2)nnc1-c1ccncc1	-18.6	25.8%	-4.8	-2.5	1.5%[38.3 µM]	1.6	2.8
CC(=O)c1sc(NC(=O)c2ccccc2C)nc1C	-4.8	9.2%	13.2	0.2	8.4%	7.7	5.8
CC(C)(Oc1ccc(Cl)cc1)C(=O)NCc1ccc(S(N)(=O)=O)cc1	0.0	16.8%	-7.4	1.3	3.9%	-8.7	5.7
COCCCNC(=S)N1CCC(C(=O)c2ccc(Cl)cc2)CC1	-5.4	9.7%	-17.3	0.9	-2.2%	4.3	-17.7
O=C(Nc1ccc(Cl)c(Cl)c1)OCCNC(=O)c1cccc(Cl)c1	-4.4	17.3%	-4.1	-0.5	18.1%	8.7	-2.7
CCc1cc(OCCN2C(=O)NC(C)(C)C2=O)ccc1Cl	-3.5	8.2%	-8.5	-3.1	·	1.4	3.9
NC(=O)C1=C[C@@H](c2ccc(Br)cc2)C[C@@H](OCc2ccc(CO)cc2)O1	23.4	5.5%	-6.0	0.3	1.0%	-1.2	4.2

Four compounds from above, reduced to CtBP-E1A blk and Sfp PPTase inh:
SMILES	CtBP-E1A blk	Sfp PPTase inh
O=C(CSc1nnc(-c2cccnc2)n1Cc1ccco1)c1ccccc1	-4.5	-22.6%
Cc1c(C)c2ccc(OCC(=O)N[C@@H](Cc3c[nH]c4ccccc34)C(=O)O)cc2oc1=O	2.0	21.4%
COc1ccc(COC(=O)c2ccc(C)c(S(=O)(=O)N3CCOCC3)c2)cc1F	-6.5	·
O=C(CCc1nnc(Cc2cccc(C(F)(F)F)c2)o1)NCC(F)(F)F	2.2	16.1%

The results go on:
SMILES	D2 PAM	Sfp PPTase inh	TRPV1 potentiator	D2 ag	PINK1 modulator	Six1-Eya2 inh	CtBP-E1A blk
COCCCNC(=S)NNC(=O)c1ccccc1Br	-13.4	-1.2%	-3.7	-12.4	-1.1%	0.4	-0.3
CCOc1ccccc1NC(=O)c1oc2ccccc2c1NC(=O)C1CC1	2.8	4.2%	-14.8	-0.8	12.7%	-0.3	12.1
Cc1cc(=O)n(Cc2ccccc2)c(O)c1C#N	?	-13.1%	14.5	2.1	2.5%	1.5	-4.5
CC(NC(=O)c1cccc(S(=O)(=O)N2CCN(C)CC2)c1)c1ccc(Cl)cc1Cl (stereo not given)	5.9	·	-16.3	-0.3	0.0%	-8.6	-3.9
COc1ccc(C(O)P(=O)(OCCC(C)C)c2ccc(N(C)C)cc2)cc1OC (stereo not given)	-4.7	25.3%	·	-3.3	-1.7%	-1.2	1.9
CCOC(=O)c1sc2c(c1C)c(=O)n(Cc1ccccc1)c(=O)n2CCN(C)C	-24.9	-9.7%	18.2	2.2	4.4%	-15.0	-2.0
O=C(N/N=C/c1cc(Cl)ccc1O)c1cccnc1	-11.8	23.7%	-3.6	1.8	0.5%	-67.6*	-91.4*
O=C(NC1CCCCC1)c1sc(=S)n2c1[nH]c(=O)c1ccccc12	-14.1	-76.8%	-7.2	-1.2	25.1µM*	-0.5	-0.4
Cc1ccc(C)c(N(CC(=O)NCCC2=CCCCC2)S(C)(=O)=O)c1	7.8	10.6%	22.5	0.6	-0.4%[38.3 µM]	4.2	3.7
O=C1NC(=O)C(=Cc2ccc(Cl)c(Cl)c2)S1	0.9	·	·	2.0	20.6%	2.1	-7.7
COc1ccc(S(=O)(=O)N2CCOC2CNC(=O)C(=O)NCCN(C)C)cc1 (stereo not given)	12.5	8.4%	4.3	1.5	1.7%	1.6	9.0
COc1ccc(N2CCN(c3oc(Cc4ccccc4)nc3C#N)CC2)cc1	-5.4	0.6%	-10.2	-1.5	9.7%[38.3 µM]	?	?
CNC(=S)N(Cc1ccc(OC)cc1)Cc1cc2ccc(C)cc2[nH]c1=O	-4.4	23.0%	4.7	-0.7	1.8%	-2.1	·
COc1cccc(-n2cc(CNCc3cn(C)nc3-c3ccccc3F)cn2)c1	24.4	4.0%	-4.3	66.2*	1.3%	-7.3	-8.7
COc1ccc(CNC(=O)CCNC(=O)N2CCn3c2nc2ccccc23)cc1	1.4	-0.3%	8.9	-1.8	0.5%	2.9	8.0
CCCn1c(SCC(=O)c2c(N)n(C3CC3)c(=O)[nH]c2=O)nnc1-c1ccncc1	-2.8	·	3.6	-3.1	0.0%	5.7	·
COc1ccc(C2C(C(N)=O)=C(C)Nc3ncnn32)cc1 (stereo not given)	0.2	0.7%	10.5	-1.9	10.6%[38.3 µM]	0.0	45.7
COc1cc(/C=C(\C#N)C(=O)Nc2cc(C(F)(F)F)ccc2Cl)ccc1OCC(=O)Nc1cccc(C(F)(F)F)c1	-22.6	-3.6%	5.7	2.2	12.6%	7.4	6.2
O=C(Nc1nccs1)c1cc(Cl)nc2ccccc12	14.2	3.5%	·	-13.8	-0.3%	-19.0	-4.8
